# Screening results as filed in PubChem BioAssay.
# StopGo reporter: High Throughput Screening for Foot and Mouth Disease Virus Antivirals | Potency, µM (series often up to 57.9 µM), inactives show at the top dose signal change, negative = less light | AID 1159524, 2015 | hit rate 1.2% among 410,000 | human cells with a luciferase reporter of 2A StopGo recoding; control for the full effect not named in the record; active = well fitted falling curve with a large enough effect; inconclusive = small, poorly fitted or top-dose-only effect; inactive = no such curve, though single readings can be large or run the other way; tested in HEK293T cells; note: % is set by controls: 0 for no effect and ±100 for the full control effect; nearly all actives have a fitted effect of over 45% in size; luciferase light after 4 h
# Cruzain noTriton: qHTS Assay for Promiscuous and Specific Inhibitors of Cruzain (without detergent); purified cruzain, Z-FR-AMC fluorescence, no detergent; hit rate 2.3% among 200,000; Potency, µM, without a hit: max response, negative = inhibition, usual class: inhibitors; Cruzipain (Trypanosoma cruzi), P25779;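 note: plate controls were enzyme without inhibitor for no effect and buffer without enzyme for full effect; nearly all actives have a fitted effect of over 40% in size; top concentration of the series not given in the record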
# Target sequence (P25779 123-467 limits assumed): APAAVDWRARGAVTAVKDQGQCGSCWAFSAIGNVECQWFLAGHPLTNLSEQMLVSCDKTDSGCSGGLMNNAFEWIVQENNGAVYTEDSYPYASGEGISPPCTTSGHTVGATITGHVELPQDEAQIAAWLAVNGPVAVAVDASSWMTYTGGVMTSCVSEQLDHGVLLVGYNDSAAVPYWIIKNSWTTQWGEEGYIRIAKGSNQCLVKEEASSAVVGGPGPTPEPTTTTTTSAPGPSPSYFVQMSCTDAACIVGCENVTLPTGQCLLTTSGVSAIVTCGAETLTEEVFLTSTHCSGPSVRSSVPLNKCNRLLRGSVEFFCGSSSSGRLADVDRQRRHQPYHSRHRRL
#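 Purified cruzain at 1.5 nM, pre-incubated 15 min with compound at room temperature in 100 mM sodium acetate pH 5.5, 5 mM DTT, 0.00005% Triton X-100. Reaction started with 2 uM Z-FR-AMC; AMC fluorescence increase over 60 s gives rate.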
# RE007 growth inh: qHTS Assay for Inhibitors of the HIV-1 protein Vpr. AID 651644, 2012. hit rate 0.21% among 360,000. S. pombe RE007 Vpr strain, BacTiter-Glo ATP luminescence, 24 h; control for the full effect not named in the record. Potency, µM (series often up to 92.2 µM), for the others: at the top dose activity change, negative = less growth; active = well fitted falling curve with a large enough effect; inconclusive = small, poorly fitted or top-dose-only effect; inactive = no such curve, though single readings can be large or run the other way;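 note: % is set by controls: 0 for no effect and ±100 for the full control effect; nearly all actives have a fitted effect of over 50% in size; the assay follows cell death caused by Vpr and the record does not say whether a fall means rescue or toxicity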
#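 Fission yeast strain RE007, carrying one chromosomally integrated HIV-1 vpr copy, was seeded at OD 0.01 in PMG+AL medium with 23 nL pinned compound. After 24 h at 30 °C and 99% humidity, viability was read by BacTiter-Glo luminescence.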
# SARS PLP yeast: qHTS of Yeast-based Assay for SARS-CoV PLP; S. cerevisiae expressing SARS-CoV PLpro, growth rescue; control for the full effect not named in the record; Potency, µM (highest dose often 32.9 µM), without a hit: at the highest dose activity, positive = growth rescue; hit rate 0.19% among 330,000; AID 485353, 2010; active means well fitted rising curve with a large enough effect; inconclusive means small, poorly fitted or top-dose-only effect; inactive means no such curve, though single readings can be large or run the other way; note: 0% is about no effect; nearly all actives have a fitted effect of over 55% in size; growth read by luminescence after 48 h
# NS1 inh: qHTS Assay for Inhibitors of Influenza NS1 Protein Function. S. cerevisiae slowed by influenza A NS1, growth recovery by OD600. Potency, µM (doses to about 46.1 µM), inactives show at the top dose activity, positive = more growth. hit rate 0.4% among 270,000; active means well fitted rising curve with a large enough effect; inconclusive means small, poorly fitted or top-dose-only effect; inactive means no such curve, though single readings can be large or run the other way; note: nearly all actives have a fitted effect of over 50% in size
#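 Recovery from NS1-induced slow growth read by OD600 in budding yeast switched to galactose assay medium (pH 6.0, -URA) at 1:100 dilution. Compound 23 nl per well; the matching strain lacking NS1 serves as control.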
# Marburg entry inh: qHTS for inhibitors of binding or entry into cells for Marburg Virus; Potency, µM (series often up to 37.8 µM), for the others: top-dose activity change, negative = inhibition, most hits filed as inhibitors; Marburg virus pseudotyped entry inhibition, cell reporter; control for the full effect not named in the record; about a third of the inactives were read at about 46 µM; hit rate 1.8% among 300,000; active = well fitted inhibition curve with a large enough effect; inconclusive = small, poorly fitted or top-dose-only effect, or effect the other way; inactive = flat fitted curve, though single readings scatter; tested in HEK293 cells; about a fifth of its hits are not listed in these tables; note: % is set by controls: 0 for no effect and ±100 for the full control effect; luciferase read-out
# LASV entry inh: qHTS for Inhibitors of binding or entry into cells for Lassa Virus; hit rate 1.2% among 300,000; Lassa virus pseudotype entry inhibition, cell reporter; control for the full effect not named in the record; Potency, µM (titrated, usually from 37.9 µM), for inactives: top-dose activity change, negative = inhibition, usual class: inhibitors; active means well fitted inhibition curve with a large enough effect; inconclusive means small, poorly fitted or top-dose-only effect, or effect the other way; inactive means flat fitted curve, though single readings scatter; tested in HEK293 cells; note: % is set by controls: 0 for no effect and ±100 for the full control effect; nearly all actives have a fitted effect of over 50% in size; luciferase read-out
# Cruzain Triton: qHTS Assay for Promiscuous and Specific Inhibitors of Cruzain (with detergent) | purified cruzain, Z-FR-AMC fluorescence, 0.01% Triton | Potency, µM, for inactives: max response, negative = inhibition, most hits filed as inhibitors | hit rate 0.43% among 200,000;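 note: plate controls were neutral wells for no effect and buffer without enzyme for full effect; nearly all actives have a fitted effect of over 40% in size; top concentration of the series not given in the record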
#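 Steps: dispense cruzain (1.5 nM final) in acetate buffer pH 5.5 with DTT and 0.01% Triton X-100; pin-transfer compounds; incubate 15 min RT; add Z-FR-AMC (2 uM final); read fluorescence every 30 s, using the 60 s intensity change.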
# Active calls of the source: *; u = inconclusive; x = no result given; & = joins results of further samples; [ ] = dose if it differs, or a comment. Unless noted, calls come from the whole dose curve; as a rule, active = well fitted curve in the direction sought with a large enough effect; inconclusive = small, poorly fitted or top-dose-only effect, or another doubt; inactive = no such curve, though single readings can be large; an effect the other way counts as inactive or inconclusive. Potency is the fitted concentration of half-maximal effect.
SMILES,StopGo reporter,Cruzain noTriton,RE007 growth inh,SARS PLP yeast,NS1 inh,Marburg entry inh,LASV entry inh,Cruzain Triton
CC1(C)CC(=O)C2=C(C1)Nc1ncnn1C2c1ccccn1 (configuration not stated),12.6%,8.3%,4.9%,5.8%,4.1%,2.5%,-4.0%,-1.4%
COc1ccc(Cl)cc1NC(=O)CN(C)C(=O)Cc1ccsc1,-4.3%,x,-14.1%,6.3%,x,7.3%,13.7%,x
Clc1ccc(C2=Nn3c(Cn4nnc5ccccc54)nnc3SC2)cc1,-22.9%,x,-6.1%,-0.9%,2.0%,-25.8%,-28.2%,x
COCCNc1c2c(c(C#N)c3nc4ccccc4n13)CCCC2,u,x,1.8%,-0.9%,x,-10.1%,-15.4%,x
CCSc1cc(N2CCCC2)nc(-c2ccc(F)cc2)n1,-11.8%,1.8%,11.2%,-7.2%,3.1%,-12.5%,4.8%,-2.8%
C/C=C(\C)C(=O)OC(C)(C)[C@H]1Cc2cc3ccc(=O)oc3cc2O1,-19.7%,x,4.1%,-0.4%,-6.7%,x,x,x
COc1cc(C(=O)Nc2ccc(NC(=O)C3CC3)nc2)cc(OC)c1OC,-27.1%,10.2%,-1.2%,-2.9%,-0.9%,-6.5%[46.1 µM],-8.5%,2.3%
Cc1ccc(C)c(N(Cc2cc3ccc(C)cc3[nH]c2=O)C(=O)c2ccco2)c1,-15.7%,x,-6.4%,-0.4%,-1.9%,x,x,x
COC(=O)[C@@H]1C[C@]2(OC(=O)c3ccccc3)C=CC(=O)C[C@@H]2N1C(=O)OCc1ccccc1,22.4µM*,u,-11.9%,-5.3%,-23.7%,u,7.31µM*,-4.4%
O=C(CN1CCOCC1)Nc1ccc(F)cc1,-3.9%,x,2.2%,1.5%,0.2%,x,x,x
Cc1cc(NC(=O)c2cc(-c3ccco3)on2)n(-c2ccccc2)n1,6.7%,6.2%,8.7%,7.4%,1.9%,6.1%,13.0%,-3.6%
COc1ccc(/C=N/Nc2ncnc3scc(-c4ccccc4)c23)cc1OC,u,u,-17.4%,-3.2%,u,u,-29.5%,-8.0%
COc1cc2c(cc1NC(=O)COc1ccc(Br)c(C)c1)oc1ccccc12,-4.1%,-13.1%,x,x,x,4.9%[46.1 µM],u,-0.8%
CCCCn1c(N)c(-c2nc3ccccc3o2)c2c([N+](=O)[O-])nn(C)c(=O)c21,-9.4%,u,-3.6%,-8.3%,15.3%,6.4%,0.6%,-2.2%
COc1ccc(S(=O)(=O)c2c(O)c3ccc(C(=O)NCc4ccc(Cl)cc4)cc3[nH]c2=O)cc1,-9.6%,-7.5%,x,x,x,x,18.6%[46.1 µM],-1.4%
CCOc1ccccc1N(C)C(=O)c1nn(-c2ccc(OC)cc2OC)c(=O)c2ccccc12,4.3%,x,5.4%,-6.9%,x,-1.9%[46.1 µM],-8.7%[46.1 µM],x
COc1cccc(C(=O)Nc2ccc(C(=O)OCc3cc(=O)n4nc(C5CC5)sc4n3)cc2)c1,-29.9%,25.4%,x,x,x,x,13.8%[46.1 µM],-0.3%
Cc1ccc(N=Nc2c(N)nn3c(C)cc(C)nc23)cc1,2.1%,2.6%,u,21.5%,6.3%,-3.8%,u,-5.5%
CCOc1cc(C2C(C(=O)c3ccco3)=C(O)C(=O)N2CCc2ccccc2)ccc1O (configuration not stated),13.1%,-3.3%,27.4%,4.6%,u,-5.3%[46.1 µM],3.2%,-3.2%
CCOc1ccc(S(=O)(=O)NCCC(=O)N2CCCN(C)CC2)cc1,-11.4%,x,-12.2%,2.4%,0.9%,x,x,x
COc1ccc(N2C(=O)c3ccc(C(=O)Nc4ccccc4OC)cc3C2=O)cc1,-23.5%,x,17.9%,5.8%,9.4%,x,x,x
COc1cccc(-c2nnc(Nc3nc4c(F)cccc4s3)o2)c1,x,u,-1.1%,-18.5%,-14.1%,u,-28.4%,-1.1%
COC(=O)c1sc(S(=O)(=O)N2CCN(c3ccc(OC)cc3)CC2)c(C(=O)OC)c1C,u,u,-1.8%,-9.9%,-2.1%,5.5%[46.1 µM],u,-3.2%&4.8%
COc1ccc(CNC(=O)C(c2ccco2)N(C(=O)Cc2cccs2)c2cccnc2)cc1 (configuration not stated),2.8%,x,0.9%,-0.2%,3.5%,13.9%[46.1 µM],-9.4%,x
CCS(=O)(=O)c1nc(S(=O)(=O)c2ccc(Cl)cc2)c(NCc2ccco2)s1,0.6%,4.7%,12.1%,-15.2%,1.4%,11.0%,2.9%,-3.8%
CCn1cc(S(=O)(=O)NCCc2ccc(F)cc2)cn1,36.0%[activator],x,8.8%,-3.3%,-5.5%,5.9%[46.1 µM],-10.9%[46.1 µM],x
Cc1csc(NC(=O)c2ccc(S(=O)(=O)N3CCCC3)cc2)n1,16.1%,x,8.5%,-0.3%,-2.2%,x,x,x
Cc1ccc(Cn2ccc(NC(=O)c3noc4c3CCc3ccccc3-4)n2)cc1,7.6%,-28.8%,9.6%,1.8%,7.9%,-4.1%[46.1 µM],0.3%,-3.4%
Cc1cccc2nc3ccccc3cc12,46.4%[activator],x,3.9%,x,x,0.7%,11.3%,x
Cc1nnc(SC(C)C(=O)NC2CCCc3ccccc32)n1-c1ccccc1 (configuration not stated),11.2%,4.3%,2.4%,7.2%,-6.6%,24.3%,0.9%,0.6%
CCOC(=O)c1nn(-c2ccc(C)c(C)c2)c(=O)c2c(N)scc12,-18.5%,3.9%,-6.5%,-2.2%,19.3%,-22.4%,-12.8%,-6.6%
NC(=O)C1CCN(C(=O)c2ccc3c(c2)N(Cc2cccc(Cl)c2)C(=O)c2ccccc2S3=O)CC1 (configuration not stated),13.3%,u,x,x,x,x,16.7%[46.1 µM],-0.7%
COc1cc(NC(C)=O)c2ncccc2c1NC(C)=O,-11.5%,x,12.5%,7.0%,14.3%,x,x,x
CN1CCN(C(=O)/C(C#N)=C/c2ccc(OC(F)F)cc2)CC1,-1.8%,x,16.8%,-2.0%,-0.6%,0.4%[46.1 µM],9.2%,x
COc1ccc(Br)c(-c2nc(CS(=O)(=O)c3ccc(F)cc3)no2)c1,8.5%,x,-10.3%,0.8%,0.3%,x,x,x
COc1cc2c(cc1OC)CN(C(=O)c1cc(Cl)nc(Cl)c1)CC2,u,x,0.6%,-2.0%,1.4%,x,x,x
O=C(Nc1ccc(OC(F)(F)F)cc1)Oc1ccccc1N1CCCCC1,-2.2%,x,-1.1%,-1.9%,-7.0%,x,x,x
O=C(Nc1cccnc1)c1ccc(COc2ccccc2Br)cc1,-29.6%,x,-18.0%,-7.5%,-4.2%,2.3%,x,x
CCOC(=O)c1cnc(SCc2nc(N)nc(Nc3ccc(F)cc3)n2)nc1N,u,27.8%,22.4%,1.8%,10.4%,u,u,-1.7%
O=C(CCN1C(=O)c2ccccc2C1=O)NCCC1=CCCCC1,3.4%,-1.9%,15.1%,-0.3%,-7.0%,20.8%,17.8%,2.6%
CN(CCc1ccccn1)C(=O)c1ccc(OC2CCN(Cc3ccccn3)CC2)cc1,-20.7%,x,-20.0%,-1.8%,5.0%,27.5%,0.7%,x
N#Cc1nc(Cc2ccccc2)oc1NCc1ccccc1,1.7%,-6.8%,-18.6%,-27.3%,-17.3%,u,-3.8%,-7.0%
Nc1ccc(S(=O)(=O)N2CCOCCOCCOCCOCCOCC2)cc1,-11.6%,x,-4.9%,4.6%,2.6%,u,20.0%,x
COC(=O)Cc1cc(C)cc2c(=O)cc(-c3ccoc3)oc12,-11.4%,x,2.3%,x,x,22.8%[46.1 µM],26.6%[46.1 µM],x
COc1ccccc1CCNC(=O)CCc1c(C)c2cc3c(C)coc3c(C)c2oc1=O,7.6%,-0.2%,x,x,x,-1.5%[46.1 µM],17.7%[46.1 µM],-2.4%
O=C(CN1CCOCC1)c1cccc2ccccc12,0.1%,-2.4%,-9.3%,-4.3%,-91.1%,1.6%,u,-16.6%
O=C(Nc1ccc(Oc2ccccc2)cc1)C1CCN(c2c3c(nc4ncnn24)CCC3)CC1,8.91µM*,u,0.2%,-4.6%,20.5%,u,20.6µM*,-2.1%
CC(C)c1ccc(S(=O)(=O)NCc2ccc3c(c2)OCO3)cc1,17.5%,x,-7.4%,-10.1%,-19.7%,8.7%,9.2%,x
Cc1ccc2cc(C=O)c(N(C)C)nc2c1,22.4%,-11.6%,-15.7%,-35.3%,-8.2%,-8.6%,6.1%,-5.0%
NS(=O)(=O)c1ccc(NC(=O)CN2CCCC2)cc1,-10.1%,x,-0.3%,-1.7%,x,0.7%[46.1 µM],7.1%[46.1 µM],x
# Next section.
SMILES,StopGo reporter,Cruzain noTriton,RE007 growth inh,SARS PLP yeast,NS1 inh,Marburg entry inh,LASV entry inh,Cruzain Triton
Cc1ccc(S(=O)(=O)C(CNC(=O)COc2ccccc2)c2cccs2)cc1 (configuration not stated),-15.8%,-15.1%,x,x,x,x,-15.2%[46.1 µM],-2.5%
COc1ccc(-c2oc3ncn4nc(-c5ccccc5C)nc4c3c2-c2ccc(OC)cc2)cc1,9.0%,-4.0%,x,x,x,x,12.7%[46.1 µM],1.8%
O=C(N=C1SC2CS(=O)(=O)CC2N1Cc1ccccc1Cl)C1CC1 (configuration not stated),-9.6%,x,2.5%,0.4%,-12.5%,1.1%[46.1 µM],-1.2%[46.1 µM],x
CC(=NNC(=O)c1ccncc1)c1cccc(Cl)c1,15.5%,x,14.9%,x,x,6.6%[46.1 µM],4.3%[46.1 µM],x
COc1ccc(C(=O)N/N=C/C(=O)c2ccccc2)cc1,-9.2%,x,-21.0%,-9.9%,-12.3%,u,-10.6%[46.1 µM],x
CC(C)CC1Nc2ccc(C(=O)NCc3ccc4c(c3)OCO4)cc2NC1=O (configuration not stated),15.1%,x,-8.0%,-1.5%,5.1%,8.2%[46.1 µM],-1.4%[46.1 µM],x
Cn1nnc(NC(=O)c2ccc(C(C)(C)C)cc2)n1,46.8%[activator],4.5%,32.5%,-13.1%,-66.0%,-0.9%,-8.0%,6.0%
